Screening data from PubChem BioAssay.
Sa helicase inh: blocks Staphylococcus aureus DNA helicase | purified S. aureus helicase, fluorescence unwinding assay; about half of the hits fall short of the stated cut | inhibition, %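 (tested at about 80 µM)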 | 0.05% of 120,000 active | AID 485395;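 active means both duplicates at 50% or more, or one of them with a favoured structure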;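 further: 0% = mean of negative control wells and 100% = mean of positive control wells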
MgrA DNA FP: S. aureus MgrA-DNA binding modulation; 0.13% of 84,000 active; inhibition, %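 (about 10 µg/mL by stock and volumes)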; fluorescence polarization;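 active means above 50% in either of two replicates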;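 further: 0% = protein plus DNA without compound and 100% = DNA alone without protein; higher means less MgrA bound to DNA so lower polarization; one replicate is shown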
Numbers without * were called inactive; / = no result given. The list is partial; count on the stated rates, not on these rows.

Second line of a record: Sa helicase inh	MgrA DNA FP
CCn1ncc(Br)c1C(=O)Nc1nccs1
→ 12	1.5
CCOC(=O)c1cnn(Cc2ccccc2)c1N
→ 7	0.7
Cn1cccc1C(=O)C(F)(F)F
→ -8	/
CN(c1ncnc2nc[nH]c12)C1CCCCC1
→ -1	/
O=C(NCCc1ccccc1)c1ccc(CS(=O)Cc2cccc(Cl)c2)o1 (stereo unspecified)
→ 2	/
Cc1cc(C)nc(NS(=O)(=O)c2ccc(NC(=O)c3ccccc3C(=O)O)cc2)n1
→ /	-0.9
Cc1cc(C)cc(NC(=O)CCCC(=O)Nc2cc(C)cc(C)c2)c1
→ 14	2.0
Cc1oc(C(C)(C)C)cc1C(=O)NC1CCN(Cc2ccccc2)CC1
→ 14	/
O=C(CNS(=O)(=O)c1ccccc1)OCc1csc(-c2ccccc2)n1
→ -9	/
NC(=O)COc1ccc2oc3ccccc3c2c1
→ 1	/
Fc1ccc(-c2[nH]ncc2CN2CCN(c3ccc(F)cc3)CC2)cc1
→ /	-2.6
Nc1ccccc1C(=O)NCCCN1CCOCC1
→ /	-1.6
Cc1ccc(NC2=Nc3ccccc3CS2)cc1
→ -11	/
OCc1cc(Br)cc(CO)c1O
→ -4	/
O=C(c1ccc([N+](=O)[O-])cc1)c1ccc2c(c1)CCC2
→ /	-2.7
Cc1nc(N2CCCC2)ncc1S(=O)(=O)c1ccc(Cl)cc1
→ /	-1.1
O=C(CCN1C(=O)S/C(=C\c2cccs2)C1=O)NCc1ccco1
→ 7	/
O=C(c1ccco1)N1CCC2(CC1)OCCO2
→ 5	2.9
O=C1c2ccccc2NS(=O)(=O)N1Cc1ccccc1
→ /	-1.0
O=C1NC(=Nc2ccccc2)S/C1=C/C=C/c1ccco1
→ 21	/
CCc1ccc(NC(=O)C2CCCN2S(=O)(=O)c2ccc3c(c2)C(C)(C)C(=O)N3C)cc1 (stereo unspecified)
→ 3	0.5
CCOC(=O)c1cc(-c2ccc(Cl)cc2)no1
→ 2	/
Cc1cc2c(=O)[nH]nc(N)c2c(Sc2ccc(Cl)cc2)n1
→ /	3.1
O=C(CSc1nnc(-c2ccccc2)n1Cc1ccco1)c1ccc2c(c1)OCO2
→ 12	/
CCOC(=O)c1sc(N)c(C#N)c1COC(=O)C1Cc2ccccc2CN1S(C)(=O)=O (stereo unspecified)
→ -91	/
O=C(NN1C(=O)c2ccccc2NC1c1ccccn1)c1ccccc1 (stereo unspecified)
→ 3	-4.2
CS(=O)(=O)Nc1ccc(C(=O)NCCc2ccccc2)cc1
→ 4	-0.7
Cc1ccc(CNC(=O)c2cn(C)c3ccc(S(=O)(=O)N(C)C)cc3c2=O)cc1
→ -21	/
CN(CC1COc2ccccc2O1)C(=O)C1CCN(c2ccc(-c3cccs3)nn2)CC1 (stereo unspecified)
→ 8	/
Cc1ccc(Oc2ccc(OCC(=O)NCC3CCCO3)cc2)cc1 (stereo unspecified)
→ -7	/
CC(C)C(=O)Oc1cc(-c2ccccc2)c2oc(=O)sc2c1
→ 7	0.0
O/N=C\c1ccc(-c2ccc(Cl)cc2)o1
→ 5	-1.1
Cc1ccc(C(=O)NN2C(=O)CSC2=S)cc1
→ 5	/
Cc1ccc2cc(NC(=O)c3ccc(C(C)(C)C)cc3)ccc2n1
→ /	-1.9
O=C(CSc1nnc(Nc2ccccc2F)s1)Nc1ccc2c(c1)OCCCO2
→ -10	/
CC1SCC(=O)N(CC(=O)Nc2ccc(F)cc2F)C1=O (stereo unspecified)
→ 14	/
O=C(NCC(O)c1ccccc1)c1ccco1 (stereo unspecified)
→ /	0.1
Cc1ccc2c(c1)NC(C1=NS(=O)(=O)c3ccc(C)cc3N1)=NS2(=O)=O
→ 12	/
O=C(Cc1cccs1)Nc1ccc(N2CCCCC2)cc1
→ -10	/
COc1nc(OCC#N)nc(N(C)C)n1
→ 4	/
CC(Oc1ccc(Cl)cc1Cl)C(=O)Nc1nc2c(s1)C(=O)CC(C)(C)C2 (stereo unspecified)
→ 12	1.4
COCCn1c(C)cc(C(=O)COC(=O)CCc2nc3ccccc3s2)c1C
→ 6	/
CCCCCCCNC(=S)NNC(=O)c1ccncc1
→ /	4.7
O=C(CSc1n[nH]c(=O)n1-c1ccccc1)Nc1ccccc1
→ /	-0.8
Cc1ccc(-c2cc(/C=C3/C(=O)C=Cc4ccccc43)c(O)o2)cc1
→ -6	-4.5
CC(C)(C)c1ccc(/C=C2\CCCC(=C3SCCCS3)C2=O)c2c1OCO2
→ -1	-1.0
COc1ccc(CCC(C(O)C(F)(F)F)S(=O)c2ccccc2)cc1 (stereo unspecified)
→ 9	-1.6
COc1ccc2oc(C(F)(F)C(F)(F)C(F)(F)C(F)F)cc(=O)c2c1
→ -46	/
COc1ccc(NS(C)(=O)=O)cc1
→ /	0.1
COC(CNC(=O)c1cc2c(=O)[nH]c3ccc(C)cc3c2s1)OC
→ 11	0.9
O=C1CN(C(=O)CCCOc2cccc(Br)c2)c2ccccc2N1
→ 5	/
COc1ccc(NC(=O)c2ccc(CN3CCS(=O)(=O)CC3)cc2)cc1
→ /	0.3
O=C(Nc1nc(-c2ccc(S(=O)(=O)N3CCCC3)cc2)cs1)c1cccs1
→ 2	2.3
CN1CCN(c2ccc(CNS(=O)(=O)c3cn(C)cn3)cc2)CC1
→ -13	/
O=C1c2cccnc2C(=O)N1CCc1ccc(S(=O)(=O)N2CCCc3ccccc32)cc1
→ 16	/
O=C(Cn1cnnn1)N(Cc1ccco1)Cc1cccs1
→ -8	/
N#CC(c1ccc(Cl)cc1)(c1ncc(C(F)(F)F)cc1Cl)N1CCOCC1 (stereo unspecified)
→ /	0.5
c1ccc(N=c2scc(-c3ccccc3)n2Cc2ccco2)cc1
→ 2	3.5
CCOc1ccc(/C=C/C(=O)Nc2ccc3[nH]c(=O)[nH]c3c2)cc1
→ 30	/
O=C(NCc1csc(-c2cccs2)n1)c1ccc2nsnc2c1
→ /	-2.4

Reformatted: entries from further up
SMILES	Sa helicase inh	MgrA DNA FP
COc1ccc2oc(C(F)(F)C(F)(F)C(F)(F)C(F)F)cc(=O)c2c1	-46	/
COc1ccc(NS(C)(=O)=O)cc1	/	0.1
COC(CNC(=O)c1cc2c(=O)[nH]c3ccc(C)cc3c2s1)OC	11	0.9
O=C1CN(C(=O)CCCOc2cccc(Br)c2)c2ccccc2N1	5	/

Continued:
Second line of a record: Sa helicase inh	MgrA DNA FP
Cc1nnc(NC(=O)c2ccc(F)cc2F)o1
→ -2	/
CCCN1C(=O)c2ccccc2NC1c1ccc(C)cc1 (stereo unspecified)
→ 1	-1.7
O=C(COC(=O)c1c2c(nc3ccccc13)CCC2)NC1CC1
→ -12	7.8
O=C1C(c2ccc(F)cc2)N(CC2COc3ccccc3O2)C(=O)CN1C1CCCCC1 (stereo unspecified)
→ 1	/
CN1c2ccccc2C(=O)NC1c1ccc(Cl)c(Cl)c1 (stereo unspecified)
→ -10	/
O=C(CC1SC(=O)NC1=O)Nc1ccccc1NC(=O)CC1SC(=O)NC1=O (stereo unspecified)
→ 33	/
CC(=O)Nc1cccc(C)c1C(=O)O
→ /	1.7
O=C(CCCc1ccccc1)Nc1ncn[nH]1
→ 7	-1.6
Cc1oc(-c2ccc(Cl)cc2)cc1C(=O)N1CCN(Cc2ccccc2)CC1
→ /	-2.5
NS(=O)(=O)c1ccc(NC(=O)COc2ccc(F)cc2)cc1
→ -19	0.2
Cc1noc(C)c1COC(=O)c1ccc2ccccc2c1
→ -6	/
CN(C)S(=O)(=O)c1ccc(N2CCCC2)c(C(=O)OCc2nc3ccsc3c(=O)[nH]2)c1
→ 1	/
CNC(=O)C(C)OC(=O)C1CCN(C2=NS(=O)(=O)c3ccccc32)CC1 (stereo unspecified)
→ -5	/
CNC(=O)NCCc1ccc(Cl)cc1
→ -7	/
O=C1NC(=O)c2cc(NC(=O)C3CCCCC3)ccc21
→ 5	/

6 structures from above, ordered by SMILES length, low to high:
Second line of a record: Sa helicase inh	MgrA DNA FP
CC(=O)Nc1cccc(C)c1C(=O)O
→ /	1.7
O=C(CCCc1ccccc1)Nc1ncn[nH]1
→ 7	-1.6
Cc1nnc(NC(=O)c2ccc(F)cc2F)o1
→ -2	/
NS(=O)(=O)c1ccc(NC(=O)COc2ccc(F)cc2)cc1
→ -19	0.2
Cc1oc(-c2ccc(Cl)cc2)cc1C(=O)N1CCN(Cc2ccccc2)CC1
→ /	-2.5
CN(C)S(=O)(=O)c1ccc(N2CCCC2)c(C(=O)OCc2nc3ccsc3c(=O)[nH]2)c1
→ 1	/

(list continues)
Second line of a record: Sa helicase inh	MgrA DNA FP
Cc1nn(Cc2ccccc2)c(C)c1C(=O)OCc1cccc(S(=O)(=O)N(C)C)c1
→ 9	/
COc1ccc(-c2cn(C(=O)c3cccs3)nc2C)cc1
→ /	-0.8
CCOCCOc1nc(C)cc(C)c1C#N
→ -14	/
CC1C/C(=N/NC(=O)C2CC2)CC(C)(C)C1 (stereo unspecified)
→ 13	/
COc1cc(NC(=O)CN2C(=O)CCC2=O)cc(OC)c1OC
→ -8	/
O=C1NC(=Nc2ccc(F)cc2)S/C1=C/c1ccc2c(c1)OCO2
→ -155	/
O=C1c2ccccc2C(=O)N1CC(O)COc1ccc(Cl)cc1Cl (stereo unspecified)
→ 6	-0.9
O=C(N/N=C1\SCC(=O)N1CCc1ccccc1)c1cccs1
→ 16	0.9
COc1ccc(C(=O)COC(=O)C2Cc3ccccc3CN2S(C)(=O)=O)cc1 (stereo unspecified)
→ -4	/
COc1ccc(CCNC(CC(=O)Nc2ccccc2)C(=O)O)cc1 (stereo unspecified)
→ -10	/
CCOC(=O)c1cn2nc(N3CCCCC3)ccc2n1
→ 4	/
COc1ccccc1Nc1cc(C(=O)NCCN2CCC(Cc3ccccc3)CC2)c2ccccc2n1
→ 15	-1.4
COC(=O)Cn1c(=NC(=O)C2CCCCC2)sc2cc(OC)ccc21
→ 8	/
Cc1cccc(NC2=C(C#N)C(=O)NC3(CCCC3)S2)c1
→ /	-1.8
O=C(CCc1ccccc1)Nc1nnc(CCN2CCCCC2)s1
→ 0	0.3
CC1CCCC(C)N1NC(=O)c1ccc(-c2nc3ccccc3s2)o1 (stereo unspecified)
→ 1	/
Cc1[nH]c2ccccc2c1C=NC1CCS(=O)(=O)C1 (stereo unspecified)
→ -14	-0.2
O=C(Nc1nnc(C2CCCCC2)s1)C1c2ccccc2Oc2ccccc21
→ -15	1.2
FC(F)(F)c1cccc(Nc2cc(-c3ccccc3)nc3ncnn23)c1
→ /	-1.5
CC(C)C(=O)n1nc(-c2ccc(Cl)cc2)nc1NCc1ccccc1
→ 12	-1.1
COC(CNC(=O)C1CCN(C(=O)c2cc3oc(C)cc3n2Cc2c(F)cccc2Cl)CC1)OC
→ -13	/
CNC(=O)NC(=O)CSc1nc2sccc2c(=O)n1-c1ccccc1
→ 4	/
O=C(CSc1n[nH]c(=O)n1Cc1ccccc1)NC1CC1
→ 9	/
COc1ccc2nc(NC(=O)c3ccccn3)sc2c1
→ 0	/
COc1ccccc1N1CCN(C(C)c2nc3ccccc3s2)CC1 (stereo unspecified)
→ 9	/
Clc1cccc(-c2nnc3c4ccccc4ncn23)c1
→ /	-0.3
Cc1c(N2C(=O)/C(=C\c3ccc(N(C)C)cc3)N(C)C2=S)c(=O)n(-c2ccccc2)n1C
→ -211	/
COC(=O)c1cccc(CSc2nnc(-c3c[nH]c4ccccc34)o2)c1
→ 4	/
Cc1ccccc1N1C(=O)C(Oc2ccc(Cl)cc2)C1CNC(C)C (stereo unspecified)
→ 14	/
N#CCn1ccn(-c2ccc(F)c(Cl)c2)c(=O)c1=O
→ 6	/
O=c1[nH]nc(SC(F)(F)C(F)(F)C(F)(F)F)c(=O)[nH]1
→ 20	-3.5
CCN(Cc1ccccc1)Cc1c(C)n(C)n(-c2ccccc2)c1=O
→ 3	/
CN1C(=O)C(=Cc2cccs2)C(=O)N(C)C1=S
→ -14	/
O=C1CC(N2CCN(S(=O)(=O)c3ccc(Cl)cc3)CC2)C(=O)N1c1ccccc1Cl (stereo unspecified)
→ -29	/
O=C(c1ccc(COc2cc(Cl)ccc2Cl)o1)N1CCSCC1
→ -9	1.4
CCSc1nc(N)c(NC(=O)c2ccc(OC)c(OC)c2)c(=O)[nH]1
→ 19	/
CCn1ncc(C2=NOC(C(=O)NCc3ccc(Cl)cc3)C2)c1C (stereo unspecified)
→ 15	0.0
Cc1cc(C)cc(Sc2ccc3nnc(-c4ccccc4)n3n2)c1
→ /	0.3
CCCC(=O)Nc1ccc2nc(SCC(=O)N3CCCC3)sc2c1
→ 3	-3.3
COc1ccc(-c2cc(N)n(-c3ccc(Cl)c(Cl)c3)n2)cc1
→ /	-3.2
O=C(CCCC(=O)Nc1ccccc1)Nc1ccccc1
→ -6	0.9
COc1ccccc1OCCNS(=O)(=O)c1ccccc1C(F)(F)F
→ -5	/
CC(NC(=O)COc1cc(=O)n(C)c2ccccc12)c1ccc2c(c1)OCCO2 (stereo unspecified)
→ 6	-5.3
O=C(OCCOc1ccc(Br)cc1)c1ccc(Br)o1
→ -3	/
N#Cc1ccccc1OCC(=O)Nc1ccccc1
→ 3	-2.8
Cc1onc(-c2ccccc2Cl)c1C(=O)NCC12CC3CC(CC(C3)C1)C2
→ 6	-0.8
Cn1c2c(c(=O)n(C)c1=O)C(Nc1nc3ccccc3s1)(C(F)(F)F)C(=O)N2 (stereo unspecified)
→ 36	/
CS(=O)(=O)N1CCSC1c1ccccc1Cl (stereo unspecified)
→ 15	/
CSc1ncccc1C(=O)Nc1ccc2c(c1)C(=O)OC2
→ /	-3.2
CC(O)CN1CN=C(SCc2ccc(Cl)cc2)NC1 (stereo unspecified)
→ /	0.2
CC(=O)N1CCN(C(C)=O)C2(CCCCC2)C1
→ -9	/
O=C(OCc1nnc(-c2ccccc2)o1)c1ccccc1N/C=C/C(=O)C(F)(F)F
→ 0	/
O=C1c2ccccc2S(=O)(=O)N1Cc1ccc(Cl)cc1Cl
→ -1	0.6
Cc1cccc(N(C)C(=O)c2coc(=O)c3ccccc23)c1
→ 6	-1.5
